Screens: PubChem, National Center for Advancing Translational Sciences (NCATS)
Six1-Eya2 blk – qHTS Assay for Inhibitors of the Six1/Eya2 Interaction. Homeobox protein SIX1 (Homo sapiens) + Protein phosphatase EYA2 (Homo sapiens), …. AlphaScreen GST-Six1/His-Eya2 binding, biochemical; active compounds read low; control for the full effect not named in the record. activity change, % (test concentration not listed). 0.56% of 360,000 active. AID 651725, 2012; in the data active = activity change below about -65%; inconclusive = about -30% to -65%; inactive = above about -30%; also: % is scaled to controls: 0 for no effect and ±100 for the full control effect
Target sequence (O00167 whole entry, looked up): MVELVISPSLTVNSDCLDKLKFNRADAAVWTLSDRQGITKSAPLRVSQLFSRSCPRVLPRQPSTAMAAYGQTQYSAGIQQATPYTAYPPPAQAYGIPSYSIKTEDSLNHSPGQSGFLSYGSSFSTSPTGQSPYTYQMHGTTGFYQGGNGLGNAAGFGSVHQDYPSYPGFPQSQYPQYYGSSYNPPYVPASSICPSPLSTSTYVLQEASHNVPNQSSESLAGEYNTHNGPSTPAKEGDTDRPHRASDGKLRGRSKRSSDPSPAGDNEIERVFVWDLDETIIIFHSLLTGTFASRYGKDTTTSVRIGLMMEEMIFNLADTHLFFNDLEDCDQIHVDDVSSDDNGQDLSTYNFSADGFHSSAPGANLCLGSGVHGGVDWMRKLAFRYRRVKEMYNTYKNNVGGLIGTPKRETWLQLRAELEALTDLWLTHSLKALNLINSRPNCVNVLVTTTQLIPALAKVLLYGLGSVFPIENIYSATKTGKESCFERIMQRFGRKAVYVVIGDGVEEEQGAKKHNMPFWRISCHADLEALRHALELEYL
Target sequence (Q15475 whole entry, looked up): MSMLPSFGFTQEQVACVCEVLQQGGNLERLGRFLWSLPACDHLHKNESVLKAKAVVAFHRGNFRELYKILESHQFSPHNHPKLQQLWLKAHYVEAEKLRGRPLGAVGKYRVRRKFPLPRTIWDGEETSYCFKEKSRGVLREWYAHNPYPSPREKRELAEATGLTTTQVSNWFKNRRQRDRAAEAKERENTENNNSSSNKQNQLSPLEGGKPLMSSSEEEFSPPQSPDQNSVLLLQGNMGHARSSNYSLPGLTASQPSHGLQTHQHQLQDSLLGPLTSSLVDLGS
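Six1/Eya2 binding was read as AlphaScreen signal after compounds were pinned into GST-Six1 plus His-tagged Eya2 (5X stock 250/500 nM) in pH 8.0 Tris/NaCl/TCEP buffer, beads added, then incubated 1 h, 37 C, dark.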
D2 PAM – Beta-Arrestin HTS for Positive Allosteric Modulators of the Human D2 Dopamine Receptor: Potentiators; D(2) dopamine receptor (Homo sapiens), P14416; DiscoveRx D2 beta-arrestin cells, luminescence, 90 min; 100% = 57 uM dopamine signal; potentiation, % (concentration not given with the values); 0.23% of 360,000 active; active = potentiation of 50% or more; inconclusive = 30% to 50%; inactive = 30% or less;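 also: compound concentration not given in the record; tested on top of an EC20 dose of dopamine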
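PathHunter D2 cells, attached overnight at 37 deg C, received compound in DMSO plus dopamine at EC20 (50 nM final) for 90 min at 37 deg C. Beta-arrestin recruitment was read as luminescence after 1 h with detection reagent at ambient temperature.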
PINK1 expr mod – A Quantitative High throughput Screen to Identify Chemical Modulators of PINK1 Expression; PINK1 immunofluorescence, high-content cytometry, 24 h; 0.2% of 410,000 active; Potency, µM (doses to about 76.6 µM), without a hit: top-dose activation (PINK1 increase), usual class: activators; active = well fitted activation curve with a large enough effect; inconclusive = small, poorly fitted or top-dose-only effect; inactive = flat fitted curve, though single readings scatter; cell line not stated here;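 also: potency is read from the fitted curve at half-maximal effect; % of control where 0% means no effect; nearly all actives have a fitted effect of over 65% in size; a mitochondrial uncoupler was the plate control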
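Readout is PINK1 immunofluorescence, quantified alongside mitochondrial, cell and nuclear markers by laser-scanning microplate cytometry. Cells from a stable line were exposed to compound titrations (5 concentrations) for 24 hours, with CCCP controls.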
D2 ag – Beta-Arrestin HTS for Positive Allosteric Modulators of the Human D2 Dopamine Receptor: Agonists. D(2) dopamine receptor (Homo sapiens), P14416. DiscoveRx PathHunter D2 beta-arrestin, luminescence, 90 min; 100% = 57 uM dopamine signal. activation, % (test concentration not listed). 0.084% of 360,000 active; in the data active = activation above about 40%; inconclusive = about 15% to 40%; inactive = below about 15%; also: compound concentration not given in the record; the text of the record calls up to 30% inactive
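Agonist mode: compounds alone added to overnight-plated D2 PathHunter cells for 90 min at 37 C, with 57 uM final dopamine (EC100) defining full response. Beta-arrestin recruitment detected by chemiluminescent reagent, read after 1 h at ambient temperature.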
TRPML1 inh – qHTS for Inhibitors of the Human Mucolipin Transient Receptor Potential 1 (TRPML1). TRPML1-inducible cells, Ca2+ dye fluorescence, FDSS; active compounds read low; inhibition of EC80 agonist-evoked calcium signal. Mucolipin-1 (Homo sapiens), Q9GZU1. activity change, negative = inhibition, % (test concentration not listed). 0.02% of 390,000 active; in the data active means activity change below about -50%; inconclusive means about -30% to -50%; inactive means above about -30%;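 also: stimulus is agonist 54-4 at its EC80 concentration; % is scaled to controls: 0 for no effect and ±100 for the full control effect; compound concentration not given in the record; the text of the record puts the active cut at -80%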
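Tet-induced TRPML1-DL cells loaded with Ca8 no-wash calcium dye were read kinetically on FDSS. Compound addition was followed by EC80 agonist 54-4 (4 uM final); inhibition was read over 110 s.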
TRPML1 ag – qHTS for Agonists of the Human Mucolipin Transient Receptor Potential 1 (TRPML1); activation, % (no concentration beside the values); TRPML1-expressing cells, Ca2+ dye fluorescence, FDSS; host cell line not named in the record; reference of the full effect not given here; 0.12% of 410,000 active; in the data active = activation above about 50%; inconclusive = about 30% to 50%; inactive = below about 30%; also: 0% is about no effect; the text of the record puts the active cut at 80%
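In this qHTS format, compounds were pin-transferred onto Ca8-dye-loaded TRPML1-DL cells induced with Tet overnight, and intracellular Ca2+ fluorescence was recorded kinetically for 110 s after a 10 s baseline. A subsequent 4uM final 54-4 (EC80) addition followed by a second 110 s read served as the antagonist phase.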
* = called active by the depositor; ? = inconclusive; . = no result given; [ ] = remark or other dose.

entry	Compound	Six1-Eya2 blk	D2 PAM	PINK1 expr mod
1	Cc1cc(C(=O)Nc2ccc(S(=O)(=O)N3CCCC3)cc2)no1	0.3	-0.3	0.1%
2	O=C(NCCCn1ccnc1)c1cccc(S(=O)(=O)Nc2ccc(F)cc2)c1	-8.1	-23.7	2.4%
3	COc1ccc(C(=O)Oc2cc(C(=S)N3CCOCC3)ccc2OC)cc1	-18.9	-12.3	-0.2%
4	CSc1ncnc2[nH]ncc12	6.9	-7.5	0.5%
5	COC(=O)c1ccc(C2=NOC(C)(c3sc(-c4ccccc4)nc3C)C2)cc1 (configuration not stated)	0.1	-12.8	-0.3%
6	O=C(c1cc2cc([N+](=O)[O-])ccc2s1)N1CCCCC1	1.0	-7.0	-0.9%
7	N#CC1=C(SCC(=O)c2ccccc2)NC2=C(C(=O)CCC2)C1c1ccco1 (configuration not stated)	-13.5	-0.2	6.3%
8	COc1ccc(CC(=O)N/N=C(\C)c2ccc(Br)s2)cc1	-2.4	-1.9	4.0%
9	O=C(O)C(Cc1c[nH]c2ccccc12)NS(=O)(=O)c1ccc(F)cc1 (configuration not stated)	-10.9	-8.4	1.1%
10	COc1ccc(-n2nc(C#N)c(Cl)cc2=O)cc1	-22.9	-9.9	-1.2%
11	CCON1C(=O)CN(C(=O)OC)C1c1ccc(Cl)cc1Cl (configuration not stated)	2.7	5.9	-1.1%
12	COc1cc(/C=C(/NC(=O)c2ccccc2)C(=O)Nc2ccccc2)c([N+](=O)[O-])cc1OC	0.8	5.0	2.8%

entry	D2 ag	TRPML1 inh	TRPML1 ag
1	2.3	-9.9	0.2
2	-7.5	-8.5	1.4
3	-0.9	94.7	0.2
4	-0.6	7.7	0.8
5	0.1	9.3	-1.1
6	-3.3	14.6	5.3
7	-3.7	-7.8	-0.4
8	-3.3	10.7	-0.2
9	-0.8	-3.1	-0.5
10	-2.3	-4.1	2.7
11	-0.1	4.6	3.6
12	-3.6	-0.4	0.0

2 entries picked at random from the list so far, as already listed:
entry	Compound	Six1-Eya2 blk	D2 PAM	PINK1 expr mod
12	COc1cc(/C=C(/NC(=O)c2ccccc2)C(=O)Nc2ccccc2)c([N+](=O)[O-])cc1OC	0.8	5.0	2.8%
9	O=C(O)C(Cc1c[nH]c2ccccc12)NS(=O)(=O)c1ccc(F)cc1 (configuration not stated)	-10.9	-8.4	1.1%

entry	D2 ag	TRPML1 inh	TRPML1 ag
12	-3.6	-0.4	0.0
9	-0.8	-3.1	-0.5

Next part:
entry	Compound	Six1-Eya2 blk	D2 PAM	PINK1 expr mod
13	Cc1nc(SCC(=O)NCc2ccco2)c2c3c(sc2n1)CCCC3	-12.8	-5.4	-0.7%
14	Cc1cccc(N2CCN(CCNC(=O)C3COc4ccccc4C3)CC2)c1C (configuration not stated)	.	.	1.4%
15	Nc1ccc2nn(-c3ccc(Cl)cc3)nc2c1	7.7	-13.0	6.4%
16	CCN1CCN(C(=O)c2cccc(OC3CCN(S(=O)(=O)N(C)C)CC3)c2)CC1	-0.4	-12.0	1.0%
17	COc1ccc(OC)c2sc(NC(=O)c3ccc(S(=O)(=O)N4CCOCC4)cc3)nc12	3.3	-6.3	13.3%
18	CC(=O)Nc1ccc(NC(=O)Cn2cc3c(n2)CCCCC3)cc1	.	.	-0.4%
19	COc1ccc(N(CC(=O)Nc2cccc(C(=O)O)c2)S(=O)(=O)c2c(C)noc2C)cc1	0.3	-0.5	6.1%[38.3 µM]
20	CC(=O)c1cccc(NS(=O)(=O)c2c(C)noc2C)c1	3.9	-3.8	0.7%
21	CC1CCC(NC(=O)CCc2cn(Cc3ccc(F)cc3)c3ccccc23)CC1 (configuration not stated)	.	.	0.5%
22	Cc1c(NC(=S)NC(=O)c2cc3ccccc3o2)cccc1C(=O)O	-9.8	-13.2	0.6%
23	NC(=O)c1nsc(C(=O)N(c2ccccc2)C(C(=O)NC2CCCCC2)c2ccc(O)cc2)c1N (configuration not stated)	1.9	1.8	5.5%
24	CC1CCCCN1N=Nc1nc2c([nH]1)c(=O)n(C)c(=O)n2C (configuration not stated)	-2.8	-3.1	-2.4%

entry	D2 ag	TRPML1 inh	TRPML1 ag
13	-3.4	14.3	3.7
14	.	-6.0	-0.7
15	-8.6	.	.
16	-6.5	-13.3	-0.3
17	0.2	3.3	0.1
18	.	-1.8	-0.3
19	-1.5	10.4	-0.1
20	-0.9	15.6	0.6
21	.	5.6	2.4
22	-3.3	9.1	0.7
23	0.6	36.1	0.5
24	-0.5	-16.8	0.7

Looked up above.
no. 15 in PINK1 expr mod is entered as 6.4%
no. 16 in D2 ag is entered as -6.5

Next part:
entry	Compound	Six1-Eya2 blk	D2 PAM	PINK1 expr mod
25	CCc1cc2c(cc3c(=O)n(CC(=O)NC(C)C)nc(CC)n32)s1	.	.	-0.1%
26	CCOC(=O)c1c(C)oc2nc(C)nc(NCc3ccccc3Cl)c12	.	.	0.2%
27	CC(=O)NCC1CCCN(C(=O)c2oc3c(F)cccc3c2C)C1 (configuration not stated)	5.6	-7.8	-0.5%
28	Cc1sc(C2C(C#N)=C(N)N(c3cccc(Cl)c3)C3=C2C(=O)CCC3)cc1CN1CCOCC1 (configuration not stated)	.	.	1.5%
29	CCn1nnnc1NCc1cccn1C	-1.5	-6.9	0.4%
30	COc1cccc2sc3cc(NCC[C@@H]4CCCN4C)ccc3c(=O)c12	-9.0	-18.5	-1.0%
31	Cc1ccc(S(=O)(=O)N2CCN(C(=O)CSC3CCCC3)CC2)c(C)c1	0.1	6.7	-3.0%
32	Cc1nc(N)sc1-c1csc(N(C)c2ccc(O)cc2)n1	-22.3	-1.6	6.0%[38.3 µM]
33	Cc1cccc2cc(CN(CCCN(C)C)C(=S)NCCc3ccccc3)c(=O)[nH]c12	-2.6	-24.8	0.5%
34	CC12CCC(C(=O)N(CCC#N)CCC#N)(CC1=O)C2(C)C (configuration not stated)	21.7	-10.9	5.01µM*
35	CCOC(=O)C1CCN(Cc2c(O)ccc3ccccc23)CC1	-1.1	-4.7	-4.2%[38.3 µM]
36	Cc1cccc(-c2oc3ccccc3c2C#CCCCCO)c1	6.6	-20.1	-0.4%

entry	D2 ag	TRPML1 inh	TRPML1 ag
25	.	-6.4	-0.5
26	.	-4.6	0.0
27	5.2	-7.8	0.4
28	.	-9.0	0.8
29	-5.2	-10.9	-0.6
30	0.1	-5.8	-0.3
31	-0.3	2.7	0.4
32	-1.8	11.9	0.6
33	-5.6	0.2	8.7
34	-3.2	-4.2	-0.2
35	0.3	0.4	2.8
36	-4.0	0.1	-0.8

Down the list, as entered above.
Nos. 26–36 in TRPML1 ag read 0.0, 0.4, 0.8, -0.6, -0.3, 0.4, 0.6, 8.7, -0.2, 2.8, -0.8
Nos. 26–36 in D2 PAM read ., -7.8, ., -6.9, -18.5, 6.7, -1.6, -24.8, -10.9, -4.7, -20.1
Nos. 26–36 in Six1-Eya2 blk read ., 5.6, ., -1.5, -9.0, 0.1, -22.3, -2.6, 21.7, -1.1, 6.6

(listing goes on)
entry	Compound	Six1-Eya2 blk	D2 PAM	PINK1 expr mod
37	COc1cccc(OC)c1C(=O)N=c1sc2cc(S(C)(=O)=O)ccc2n1C	-1.1	6.2	-0.2%
38	CC(=O)Nc1nonc1NC(=O)COc1ccccc1	11.1	-3.5	-0.7%
39	Cc1ccc(-n2nc(C(=O)N3CCN(c4cc(Cl)ccc4C)CC3)c(=O)n(C)c2=O)cc1	.	.	0.8%
40	O=C(NCCc1nc2ccccc2[nH]1)/C(=C/c1ccco1)NC(=O)c1ccco1	1.8	-17.5	0.0%
41	OC1CN=C2C=CC=CN2C1 (configuration not stated)	2.4	7.6	1.5%
42	O=C(NCC1CCCCC1)c1cccc(Br)c1	-1.6	-4.6	-0.6%
43	CS(=O)(=O)c1ccccc1-c1nc(-c2ccc(C(F)(F)F)cc2)no1	4.2	0.3	6.7%
44	Cc1ccc(C(C)C)c(OCC(=O)c2c(O)c3ccccc3oc2=O)c1	-1.8	-25.0	-0.5%
45	CCOC(=O)c1c(NC(=O)CC)sc(C(C)=O)c1C	0.9	-8.2	-0.8%
46	O=C(NCCC1=CCCCC1)c1cnsn1	1.4	-12.9	-1.4%
47	CCN1CCN(Cc2c(O)c(Cl)cc3c(C)cc(=O)oc23)CC1	0.1	13.0	2.0%[38.3 µM]
48	Cc1ccc(-n2c(SCC(N)=O)nc(O)cc2=O)cc1	-5.1	11.0	1.6%

entry	D2 ag	TRPML1 inh	TRPML1 ag
37	2.6	11.6	-0.4
38	-6.1	3.9	-0.2
39	.	-3.5	0.3
40	-6.0	-8.4	1.0
41	-2.4	2.2	-0.7
42	-2.9	-12.5	1.8
43	-2.0	-8.4	0.3
44	0.9	-4.7	-0.1
45	-0.6	0.2	2.4
46	-1.9	1.0	-0.7
47	0.4	3.0	-0.1
48	0.0	-24.6	1.3

Next section.
entry	Compound	Six1-Eya2 blk	D2 PAM	PINK1 expr mod
49	COc1ccc(-c2csc(N(CCc3ccccc3)C(=O)COc3ccccc3)n2)cc1	3.2	-14.2	0.3%
50	CCn1c(CN(C)c2ccccc2)nc2ccccc21	6.5	-1.9	3.2%
51	COc1ccc(C2CC(c3ccc(F)cc3)Nc3nc(N)nn32)cc1OC (configuration not stated)	3.0	-1.9	4.1%
52	COc1ccc(-c2nnc(NC(=O)Cc3ccccc3)o2)cc1	?	-10.9	-2.4%
53	COc1ccc(NC(C)=O)cc1NC(=O)CN1CCN(CC(=O)Nc2ccccc2Cl)CC1	-3.3	1.0	0.0%
54	NC(=O)C1CCN(C(c2ccccc2F)c2nnnn2Cc2ccco2)CC1 (configuration not stated)	1.3	6.1	-0.8%
55	Cc1nn(-c2ccccc2)c(C)c1NC(=O)COC(=O)CCOc1ccccc1	-3.8	-14.9	-0.4%
56	COc1ccc(NC2CCCN(C(=O)c3cccc(C(F)(F)F)c3)C2)cc1OC (configuration not stated)	-2.5	-6.9	1.6%
57	Cc1cc(C)c2c(NC(=O)C3CC3)nn(C)c2n1	-0.7	-5.2	1.2%
58	Cc1ccccc1N(C(=O)c1snc(C(N)=O)c1N)C(C(=O)NCc1ccccc1)c1ccc(O)cc1 (configuration not stated)	-18.9	3.4	2.9%
59	COc1ccccc1NC(=O)CCc1c(C)nc2c(-c3ccc(F)cc3)c(C)nn2c1C	1.2	1.4	8.2%

entry	D2 ag	TRPML1 inh	TRPML1 ag
49	-1.2	21.4	2.7
50	5.1	18.7	0.6
51	4.2	12.4	0.3
52	0.0	-5.4	1.2
53	-4.1	15.0	-0.5
54	-0.3	-2.7	-0.8
55	-4.9	-6.8	-0.5
56	14.3	12.5	0.6
57	-6.4	15.8	0.2
58	13.2	5.0	0.2
59	-1.0	-22.3	2.3
